Anaer choline gr: blocks anaerobic gram-negative growth on choline. AID 1963822. 55,000 compounds, 0.2% hits. Gram-negative bacterium anaerobic choline minimal medium, absorbance growth; active compounds read low; many inactives read as strong as hits in the columns shown. calls only;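 active = growth z-score on choline under -2 at 7 or 20 h with little or no fall on glycerol, limits in tiers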;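 also: stock transfer was 300 nL into about 50 µL; the organism is E. coli; final concentration not given here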
Anaer choline gr early: also measured in Anaer choline gr; calls as there; z-score; measured here: choline growth z-score, timepoint 1;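 score of optical density at 7 h as mean of two plates; lower means less growth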
An asterisk follows results filed as active; i = inactive; + = active, no number; & = joins results of further samples. Only part of the results is shown; rates above refer to the full screens.

Anaer choline gr,Anaer choline gr early,canonical_smiles
i,-0.98,O=C(Cn1c(=O)ccc2cc(S(=O)(=O)N3CCCC3)ccc21)N1CCN(c2ccccc2)CC1
i,-1.17,Clc1ccc(-c2nc(Cn3ccnc3)no2)cc1
i,1.14,CCc1cc(C2CCCN2C(=O)Cn2nc(C(F)(F)F)cc2C)on1 (stereo unspecified)
i,-0.09,CCOC(=O)c1cc(S(=O)(=O)N2CCCC2C(=O)Nc2cccc(C)n2)cn1C (stereo unspecified)
i,-0.16,O=C(NC1CCCC1)c1cccc(Oc2cc(-c3ccccc3)ncn2)c1
i,-0.28,CC(C)(C)NC(=O)N1CC=C(C(=O)N2CCCC2)CC1
i,0.54,COc1ccc(NC(=O)c2c(C)oc3ccc(O)c(CN4CCCCC4)c23)cc1
i,-0.47,CCc1ccc(NC(=O)N2CCCN(S(=O)(=O)c3ccc4c(ccn4CC)c3)CC2)cc1
i,-0.44,CC(NC(=O)c1sc2ncccc2c1-n1cccc1)c1ccc(F)cc1 (stereo unspecified)
i,0.87,C=Cc1ccc(Cn2nc3n(CCC(C)C)c(=O)c4ccc(C(=O)NCC(C)C)cc4n3c2=O)cc1
i,0.94,CCc1c(C)nc(SCc2nc(-c3ccccc3)oc2C)[nH]c1=O
i,-0.19,Cc1cc(C2CCCN2C(=O)NCC(C)C)no1 (stereo unspecified)
i,-1.53,CCCCN1C(=O)CC(C)Nc2ccccc21 (stereo unspecified)
i,-0.71&-1.55,CC(C)(O/N=C(\C(=O)N[C@@H]1C(=O)N2C(C(=O)[O-])=C(C[n+]3ccccc3)CS[C@H]12)c1csc(N)n1)C(=O)O
i,-0.24,O=C1C(=O)N(C2CCN(C(=O)c3ccccc3Cl)CC2)CCN1Cc1ccccc1
i,-1.61,O=C(CCc1nc(CSc2nc3ccccc3[nH]2)no1)Nc1cccc(Br)c1
i,-0.31,CC(C)Cn1c(=O)c2ccccc2n2c(=O)n(CC(=O)c3ccc(Br)cc3)nc12
i,-1.17,CCCc1nc2nc(C)cc(N3CCN(c4cccc(C)c4)C(C)C3)n2n1 (stereo unspecified)
i,0.72,CC(C)n1cnc(S(=O)(=O)N2CCC(C(=O)Nc3ccc4c(c3)OCCO4)CC2)c1
i,-0.16,Cc1cc(N2CCOCC2)nc(N2CCN(C(=O)c3ccc(C(C)(C)C)cc3)CC2)n1
i,2.4,COc1cccc(-c2noc(-c3sccc3S(=O)(=O)N(C)c3ccccc3)n2)c1OC
i,1.29,N[C@@H](CSCCB(O)O)C(=O)O
i,0.33,CSc1ncn(-c2nc(N(C)C)nc(N3CCCCC3)n2)n1
i,-0.39,Cc1ncc2c(n1)CCN(S(=O)(=O)c1cc(F)ccc1F)C2

Some of these compounds in order of molar mass, falling:
Anaer choline gr,Anaer choline gr early,canonical_smiles
i,2.4,COc1cccc(-c2noc(-c3sccc3S(=O)(=O)N(C)c3ccccc3)n2)c1OC
i,-0.24,O=C1C(=O)N(C2CCN(C(=O)c3ccccc3Cl)CC2)CCN1Cc1ccccc1
i,-1.17,CCCc1nc2nc(C)cc(N3CCN(c4cccc(C)c4)C(C)C3)n2n1 (stereo unspecified)
i,0.33,CSc1ncn(-c2nc(N(C)C)nc(N3CCCCC3)n2)n1

Next compounds.
Anaer choline gr,Anaer choline gr early,canonical_smiles
i,0.62,COc1ccc(-c2onc(C)c2C)cc1S(=O)(=O)Nc1cccnc1
i,-0.05,CCSc1nn(CC(=O)Nc2cc(Cl)ccc2C)c(N)c1S(=O)(=O)c1ccc(OC)cc1
i,0.27,Cc1onc(-c2c(Cl)cccc2Cl)c1C(=O)N[C@@H]1C(=O)N2[C@@H]1SC(C)(C)[C@@H]2C(=O)O
i,0.55,O=C(NC1CCCCC1)C1CCCN(c2ccc3cc(S(=O)(=O)N4CCCCC4)ccc3n2)C1 (stereo unspecified)
i,0.57,O=C(CSc1nc(-c2ccccc2)nc2cc(=O)[nH]n12)N1CCCc2ccccc21
i,-0.01,CCOC(=O)c1c(C)[nH]c(CCC(=O)Nc2cc(C)on2)c1C
i,0.86,O=C(c1cccc(F)c1)N1CCCN(Cc2noc(-c3ccccc3)n2)CC1
i,0.26,Cc1nc(N2CCN(c3ccc(Cl)cc3)CC2)[nH]c(=O)c1C
i,-0.84,O=C(C1Nc2ccccc2S(=O)(=O)N1)N1CCN(c2ccccc2)CC1 (stereo unspecified)
i,0.12,O=C(CSc1nc(N2CCc3ccccc3C2)nc2ccccc12)NCc1ccccc1
i,0.34,CN(C(=O)CSc1nnc2c3ccccc3nc(-c3ccccc3)n12)c1ccccc1
i,-0.25,COc1cc(C)c(C)cc1S(=O)(=O)Nc1ccc(-c2ccc(N3CCOCC3)nn2)cc1
i,1.39,CCOC(=O)C1CCCN(Cc2cc(=O)[nH]c(C(C)C)n2)C1 (stereo unspecified)
i,-0.53,CC(NC(=O)CSc1nnc(-c2cc3ccccc3n2C)o1)c1nc2ccccc2[nH]1 (stereo unspecified)
i,0.96,Cc1ccc(Cn2cccc2CNS(=O)(=O)c2ccc(Br)cc2)cc1
i,1.31,O=C(CN(Cc1ccccc1)S(=O)(=O)c1ccc(Br)cc1)N1CCN(c2ccccc2)CC1
i,-0.32,CN1CCN(C(CNS(=O)(=O)c2ccc3c(c2)OCCO3)c2ccc(N(C)C)cc2)CC1 (stereo unspecified)
i,-0.28,CCOc1ccccc1NC(=O)C(C)n1nnc2sc3c(c2c1=O)CCCC3 (stereo unspecified)
i,1.3,Cc1ccc(-n2nc(N3CCN(S(=O)(=O)c4cnc[nH]4)CC3)ccc2=O)cc1
i,0.92,COc1ccc(-n2c3c(cc(C(=O)NCCc4ccccc4)c2=O)C(=O)CC(C)(C)C3)cc1
i,0.82,COCc1nnc(C(=O)Nc2cccc(C(=O)NCCc3c[nH]c4ccccc34)c2)s1
i,0.54,Cc1ccc(N(C(=O)c2ccc(S(=O)(=O)N3CCCCC3)cc2)C2C=CS(=O)(=O)C2)cc1 (stereo unspecified)
i,0.87,CCn1nc(C)c2ccnc(N3CCC(C(=O)NCCN4CCOCC4)CC3)c21
i,-0.07,O=C(NCc1ccc2c(c1)OCO2)C1CCN(c2cc(-c3ccccc3)ncn2)CC1

Entries of single compounds from above. Order of screens: Anaer choline gr	Anaer choline gr early
`Cc1ccc(Cn2cccc2CNS(=O)(=O)c2ccc(Br)cc2)cc1` as listed: i	0.96
`CC(NC(=O)CSc1nnc(-c2cc3ccccc3n2C)o1)c1nc2ccccc2[nH]1` (stereo unspecified) as listed: i	-0.53
`COCc1nnc(C(=O)Nc2cccc(C(=O)NCCc3c[nH]c4ccccc34)c2)s1` as listed: i	0.82

Next part.
Anaer choline gr,Anaer choline gr early,canonical_smiles
i,0.38,Cc1csc(-c2cc(S(=O)(=O)N3CCCN(C)CC3)cn2CC(=O)N2CCCCC2)n1
i,-1.03,CCNC(=O)C1CCN(Cc2c[nH]c3ccc(OC)cc23)CC1
i,-0.26,O=C(O)c1cc(N2CCN(c3ccccc3Cl)CC2)ccc1NC(=O)C1CCC1
+,-2.41*,O=C(Nc1ccc(N2CCC(Cc3ccccc3)CC2)cc1C(=O)O)c1ccccc1Cl
i,-0.83,COc1ccc(CCNC(=O)Cn2nc(-c3ccc(Cl)cc3)c3c(C)onc3c2=O)cc1OC
i,-0.7,O=C(NCCCN1CCC(N2CCCCC2)CC1)c1nnc(C(=O)Nc2ccc(F)cc2)s1
i,0.27,CCN(Cc1ccccc1)S(=O)(=O)c1c(C)nn(-c2ccc(-c3ccccc3)nn2)c1C
i,-1.79,CCCC(=O)N(Cc1nc2nc(C)cc(C)n2n1)c1ccc(Cl)cc1
i,-0.04,Cc1nn(-c2ccc3nnc(C)n3n2)c2c1C(c1ccc(OCc3cccc(F)c3)cc1)CC(=O)N2 (stereo unspecified)
i,0.69,O=C(CSc1nc2ccccc2nc1Cc1ccc(F)cc1)NCCc1ccccc1
i,-0.26,Cc1ccc(CC(=O)Nc2ccc3nc(N4CCC(C(N)=O)CC4)cc(C(=O)O)c3c2)cc1
i,-0.96,CCn1cnc(S(=O)(=O)N2CCCC(C(=O)N3CCCC3)C2)c1 (stereo unspecified)
i,-0.39,CCCCC(=O)Nc1ccc(C2(C(=O)NCC3CCCO3)CC2)cc1 (stereo unspecified)
i,-0.37,Cc1ccc(S(=O)(=O)N(C)CCc2noc(-c3ccccc3Cl)n2)c2nsnc12
i,0.21,CCC(C)NC(=O)N1CCCN(c2nc3cc(Br)ccc3n3cccc23)CC1 (stereo unspecified)
i,-0.45,Cc1ccc(CN2C(=O)c3ccccc3CCC2(C)C(=O)NCCC(C)C)cc1 (stereo unspecified)
i,0.7,Cc1ccc2[nH]cc(NC(=O)NCCN3CCc4ccccc4C3)c(=O)c2c1
i,1.72,O=S(=O)(NCC1CCCO1)c1ccc(S(=O)(=O)N(Cc2ccccc2)Cc2ccccc2F)cc1 (stereo unspecified)
i,1.85,Cc1onc(-c2ccccc2Cl)c1C(=O)Nc1cc(-n2cnnn2)ccc1N1CCCCC1
i,-0.3,C=C1C(c2ccc(C)cc2)=CCc2cc(C)cc(C)c21
i,-0.03&0,CC(C)(C#N)c1cc(Cn2cncn2)cc(C(C)(C)C#N)c1
i,1.12,O=S(=O)(c1ccc(-c2cnc(C3CCC3)o2)s1)N1CCN(c2ccccc2)CC1
i,-2.79,COc1ccc(/C=C/c2nc(NCCCN(C)C)c3ccccc3n2)cc1
i,-0.28,CCOc1ccc(C(=O)N2CCC(c3nc4c(nnn4Cc4ccc(F)cc4)c(=O)[nH]3)CC2)cc1
i,-0.02,Cc1cc2nc(COc3ccc(NC(=O)C4CC4)cc3)cc(=O)n2o1
i,0.93,CCCCc1nnc2sc(COc3ccc(Cl)cc3)nn12
i,1.45,Cc1cc2nc3sc(C(=O)NCCCN4CCN(c5ccc(F)cc5)CC4)cc(=O)n3c2cc1C
i,0.73,O=C(NC1CC1)C1CCN(c2nc3nc[nH]c(=O)c3s2)CC1
i,-0.74,CCc1onc(C)c1C1CCCN1Cc1cn(CC(=O)OC)c2ccc(OC)cc12 (stereo unspecified)
i,-1.05,O=C(NCCc1csc2nc(-c3cccc(F)c3)nn12)c1ccccc1Cl
i,-0.75,Cc1cc(F)ccc1NS(=O)(=O)c1cc(-c2cc(C(F)(F)F)on2)sc1C
i,0.61,CCOC(=O)c1c(C)[nH]c(C(=O)N2CCC(CC(=O)NCc3ccccc3Cl)CC2)c1C
i,-0.56,CCOC(=O)C1CCN(c2cc3c(cc2NC(=O)NC(C)CC)n(C)c(=O)n3C)CC1 (stereo unspecified)
i,-1.58,Cc1cc(C)cc(N(CC(=O)N2CC=C(c3ccccc3)CC2)S(=O)(=O)c2c(C)noc2C)c1
i,-0.92,CC(=O)N1c2ccc(S(=O)(=O)N3CCN(c4nc5ccccc5n5cccc45)CC3)cc2CC1C (stereo unspecified)
i,0.56,O=S1(=O)C[C@H](NCC2CCCO2)[C@@H](S(=O)(=O)c2ccc(F)cc2)C1 (stereo partly specified)
i,-0.51,O=C(Cn1c(C(=O)c2cccc(F)c2)nc2ccccc21)NCC1CCCO1 (stereo unspecified)
i,0.32,O=C(NCc1ccc(Br)cc1)c1sc2ncccc2c1-n1cccc1
i,-0.37,CCC(=O)Nc1cccnc1-c1ccc(C(=O)Nc2ccc(OC)cc2)cc1
i,-1.57,Cc1cccc(Cn2nc(C)c3c(C)onc3c2=O)c1
i,0.93,COc1ccc(-n2cc(C(=O)NCCc3c[nH]c4ccc(F)cc34)nn2)cc1
i,-0.73,Cc1ccc(N2CC(C(=O)Nc3ccc4c(c3)N(C(C)C)C(=O)c3ccccc3O4)CC2=O)cc1 (stereo unspecified)
i,0.8,Cc1cn2c(S(=O)(=O)N3CCC4(CC3)OCCO4)c(C(C)C)nc2s1
i,1.32,COc1ccc(-c2nn3c(NC(C)C)cc(C)nc3c2C)cc1OC
i,-0.36,CC(C)c1cc(C2CCCN2C(=O)Nc2ccc(Br)cc2F)no1 (stereo unspecified)
i,-1.01,CC(C)NC(=O)C1CCN(c2cnc(N3CCOCC3)nc2)CC1
i,2.82,CCOc1ccc(S(=O)(=O)Nc2cccc(-c3nnc(-c4ccccc4)o3)c2)cc1
i,1.42,Cc1ccc(S(=O)(=O)N2CCCN(c3nc4cccnc4s3)CC2)c(C)c1
i,-0.12,Brc1c(Br)c(Br)c2[nH]cnc2c1Br
i,0.87,Cc1ccccc1-c1nn2c(=O)cc(N3CCN(C(=O)Nc4cccc(C)c4C)CC3)nc2s1
i,-0.03,COc1ccc(-c2cc3nccc(-c4cc(Cl)ccc4O)n3n2)cc1
i,-0.54,CC(C)NC(=O)CN(C)S(=O)(=O)c1cc2c(cc1Cl)NC(=O)CO2
i,0.28,COc1ccc(S(=O)(=O)Nc2cccc(-c3cn4c(C)cccc4n3)c2)cc1
i,0.27,O=C1CC(c2cc(Br)ccc2F)c2scc(-c3ccc(F)cc3)c2N1 (stereo unspecified)
i,0.72,CC1CCN(S(=O)(=O)c2nnc(NC(=O)c3ccc(F)cc3)s2)CC1
i,-1.87,Cc1ccc(S(=O)(=O)N(C)c2nc3nc(C)c(Cl)c(C)n3n2)cc1
i,0.25,CN(C)S(=O)(=O)c1ccc2c(c1)cc(C(=O)NCc1cccnc1)n2Cc1ccncc1
i,0.54,O=C(Nc1nc2cc(NC(=O)c3cnccn3)ccc2s1)c1ccccc1

Reformatted with each value named: three of the compounds above
Compound: CC(C)NC(=O)CN(C)S(=O)(=O)c1cc2c(cc1Cl)NC(=O)CO2
- Anaer choline gr: i
- Anaer choline gr early: -0.54
Compound: COc1ccc(-c2cc3nccc(-c4cc(Cl)ccc4O)n3n2)cc1
- Anaer choline gr: i
- Anaer choline gr early: -0.03
Compound: Cc1ccccc1-c1nn2c(=O)cc(N3CCN(C(=O)Nc4cccc(C)c4C)CC3)nc2s1
- Anaer choline gr: i
- Anaer choline gr early: 0.87
